Source: PubChem
ALR inh = inhibitors of human ALR sulfhydryl oxidase, primary screen, biochemical, H2O2 detection, HRP-luminol luminescence, single point | 290,000 compounds, 3.8% hits | purified ALR, DTT oxidation | FAD-linked sulfhydryl oxidase ALR (Homo sapiens), P55789 | inhibition, % (no concentration beside the values);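 active = mean and each replicate at 75% or more; inconclusive = only one of the two met; inactive = neither met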;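 note: stock transfer was 7.5 nL into about 7.5 µL; 0% = neutral wells and 100% = wells with inactivated enzyme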
Vif A3G = inhibitors of Vif binding to APOBEC3G peptide, primary screen, biochemical, TR-FRET, GST-Vif 1-94, biotin-A3G peptide, dose response retest (AID 1117319); Virion infectivity factor (Human immunodeficiency virus type 1 group M subtype B (isolate …; TR-FRET GST-Vif / biotin-A3G peptide binding; higher % means a stronger effect; test concentration not given here; strong numbers were not always called active; one-dose inhibition, %; IC50 in µM for titrated hits; 260,000 compounds, 0.57% hits;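 active = above the screen mean plus three standard deviations and confirmed in dose response; inconclusive = results disagree or hit not tested in dose response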;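 note: Vif residues 1-94 fused to GST binding biotinylated APOBEC3G peptide 110-148; 0% = full assay without inhibitor and 100% = GST in place of GST-Vif; retest series ran down from 100 µM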
HNF4A DNA FP = change in binding of human HNF4A to DNA, primary screen, biochemical, fluorescence polarization, FITC-DNA; 1 h; activity change, % at 10 µM; 360,000 compounds, 0.3% hits; AID 1224865, 2016; in the data active = activity change above about 30%, passing the limit was not always enough;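 note: controls were the assay level and a saturating level of protein; the project sought stronger binding though the title names inhibitors; some compounds called inactive have numbers as strong as hits; positive values seem to mean higher polarization but the record does not say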
Target sequence (P41235 whole entry, looked up): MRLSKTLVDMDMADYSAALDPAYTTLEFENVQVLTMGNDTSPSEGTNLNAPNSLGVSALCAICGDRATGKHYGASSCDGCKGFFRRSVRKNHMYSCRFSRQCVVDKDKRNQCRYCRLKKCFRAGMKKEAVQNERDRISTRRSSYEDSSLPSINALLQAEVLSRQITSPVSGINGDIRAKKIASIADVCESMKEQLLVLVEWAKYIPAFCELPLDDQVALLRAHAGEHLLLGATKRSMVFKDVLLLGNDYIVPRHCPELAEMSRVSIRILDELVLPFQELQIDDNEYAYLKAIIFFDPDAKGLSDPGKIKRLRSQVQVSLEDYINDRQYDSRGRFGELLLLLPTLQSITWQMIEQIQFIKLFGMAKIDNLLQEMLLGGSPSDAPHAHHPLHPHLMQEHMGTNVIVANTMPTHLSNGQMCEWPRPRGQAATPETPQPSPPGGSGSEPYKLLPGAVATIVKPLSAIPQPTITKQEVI
AF4-AF9 inh = inhibitors of AF4 peptide binding to AF9, primary screen, biochemical, AlphaScreen, biotin-AF4 peptide, FLAG-AF9, single point | Protein AF-9 (Homo sapiens), P42568 | inhibition, % at 10 µM | 350,000 compounds, 0.47% hits | AID 651704, 2012;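 active = every replicate reaching a set inhibition limit, whatever the replicate mean, cut at about 25% in these data; inconclusive = mean inhibition reaches that limit but some replicates miss it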;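 note: 0% = plate neutral control median and 100% = total signal loss; the record names both 10 and 1 µM as test concentration; the first replicate is given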
Target sequence (P42568 whole entry, looked up): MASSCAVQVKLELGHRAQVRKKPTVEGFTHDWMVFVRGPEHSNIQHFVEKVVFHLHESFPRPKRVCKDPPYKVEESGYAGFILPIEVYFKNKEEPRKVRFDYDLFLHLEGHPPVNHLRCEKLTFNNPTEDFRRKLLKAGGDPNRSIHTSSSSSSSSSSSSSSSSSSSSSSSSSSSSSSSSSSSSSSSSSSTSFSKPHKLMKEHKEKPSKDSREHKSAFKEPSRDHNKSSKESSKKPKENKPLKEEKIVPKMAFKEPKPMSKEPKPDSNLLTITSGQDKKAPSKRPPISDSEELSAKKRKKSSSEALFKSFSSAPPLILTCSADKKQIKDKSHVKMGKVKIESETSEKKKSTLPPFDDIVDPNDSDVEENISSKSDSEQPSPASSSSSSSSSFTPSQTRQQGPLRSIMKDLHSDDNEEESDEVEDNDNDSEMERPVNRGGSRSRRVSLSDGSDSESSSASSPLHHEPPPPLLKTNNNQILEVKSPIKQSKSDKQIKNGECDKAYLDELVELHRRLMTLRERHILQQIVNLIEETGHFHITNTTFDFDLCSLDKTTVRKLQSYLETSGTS
FGF22 binding = binders of human FGF22 protein, primary screen, FGF22 synaptogenesis inhibitor project, biophysical, thermal shift, single point; calls only at 9.99 µM; recombinant FGF22 thermal shift, SYPRO orange fluorescence; percent of sucrose octasulfate shift, DMSO zero; Fibroblast growth factor 22 (Homo sapiens), Q9HCT0; 340,000 compounds, 1.5% hits;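 active = melting point raised past a set limit in the mean and every replicate; inconclusive = no clear call; three in four hits are not shown here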
Ecoli rRNA inh = reduced GFP signal of wild-type E. coli, primary screen, bacterial rRNA inhibitor project, GFP/RFP fluorescence, OD600, single point; E. coli WT GFP vs humanized-ribosome RFP mutants, 24 h; active compounds read low; DMSO median 0, no signal -100; GFP signal change (wild-type ribosome), % (no concentration beside the values); 350,000 compounds, 1.6% hits; AID 720706, 2013;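 active = significant combined selectivity score with lowered wild-type GFP, culture density cut under 30%, mutant RFP and density less affected; inactive = any of these conditions unmet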; note: one replicate is shown; some compounds called inactive have numbers as strong as hits
E coli growth = E. coli growth inhibition, primary screen, OD600; Escherichia coli growth, 23 h; active compounds read low; OD600 absorbance (no concentration beside the values); 330,000 compounds, 0.21% hits;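 active = OD600 absorbance below the run mean of sample wells minus 3.6 SD, in any replicate, cut at about 0.56 in these data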;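 note: stock transfer was 300 nL into about 60 µL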
Ecoli rRNA inh OD600 = recorded beside Ecoli rRNA inh, whose call it bears; OD600 change, %; measured here: OD600 growth;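 optical density of the mix in the first replicate; 0 = DMSO median and -100 = no signal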
Ecoli rRNA inh RFP = second read-out of Ecoli rRNA inh, no call of its own (marks repeat the call); RFP signal change, %; measured here: RFP humanized mutant strains;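 first replicate; 0 = DMSO median and -100 = no signal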
* hit, by the source's call; & = joins results of further samples. Only part of the results is shown; count on the stated rates, not on these rows.

Results for Cc1cc([N+](=O)[O-])nn1CC(=O)Nc1ccccn1 ?
ALR inh: 2; Vif A3G: 12%; HNF4A DNA FP: -9.6; AF4-AF9 inh: -5.6; FGF22 binding: inactive; Ecoli rRNA inh: -2; E coli growth: 0.71; Ecoli rRNA inh OD600: -5; Ecoli rRNA inh RFP: 2.5

How did Cc1ccc(NC(=O)Nc2nc3ccccc3s2)cc1NC(=O)Nc1nc2ccccc2s1 do in these assays?
ALR inh: -2; Vif A3G: -7%; HNF4A DNA FP: 7.8; AF4-AF9 inh: 2.0; FGF22 binding: inactive; Ecoli rRNA inh: 1; E coli growth: 0.72; Ecoli rRNA inh OD600: 11; Ecoli rRNA inh RFP: -3.0

Results for Cc1cc(C)nc(SCCS(=O)(=O)Cc2ccccc2)n1 ?
ALR inh: -1; Vif A3G: -4%; HNF4A DNA FP: 0.6; E coli growth: 0.67

How did COCCNC(=O)C1(C)CCCN(Cc2ccc(-c3ccccc3)o2)C1 (stereo not drawn) do in these assays?
HNF4A DNA FP: -2.5; AF4-AF9 inh: 2.3; FGF22 binding: inactive; Ecoli rRNA inh: -1; Ecoli rRNA inh OD600: 4; Ecoli rRNA inh RFP: -0.4

Results for O=C(CCCCCNC(=O)N1CCn2c1nc1ccccc12)NCc1ccccc1Cl ?
ALR inh: -7; Vif A3G: 1%; HNF4A DNA FP: -2.8; AF4-AF9 inh: -7.9; FGF22 binding: inactive; Ecoli rRNA inh: -6; E coli growth: 0.71; Ecoli rRNA inh OD600: -22; Ecoli rRNA inh RFP: 9.6

What do the screens show for `O=C(Nc1ccccc1)N1CCCC1c1cccs1` (stereo not drawn)?
ALR inh: -3; Vif A3G: -9%; HNF4A DNA FP: 0.2; AF4-AF9 inh: -8.4; FGF22 binding: inactive; Ecoli rRNA inh: -7; E coli growth: 0.67; Ecoli rRNA inh OD600: 0; Ecoli rRNA inh RFP: -0.9

What do the screens show for `Nc1c(Cl)cc(-c2cn(CCC(=O)O)c(-c3ccc(Cl)nc3)n2)cc1Cl`?
ALR inh: -10; HNF4A DNA FP: -1.8; FGF22 binding: inactive; Ecoli rRNA inh: -7; E coli growth: 0.67; Ecoli rRNA inh OD600: -5; Ecoli rRNA inh RFP: -2.7

Results for COc1ccc(CCN2CC(C(=O)O)CC2=O)cc1 (stereo not drawn) ?
ALR inh: -1; Vif A3G: 1%; HNF4A DNA FP: -2.0; E coli growth: 0.64

What do the screens show for `Cc1ccccc1S(=O)(=O)N(CC(O)CN1C(=O)NC(C)(C)C1=O)c1ccccc1` (stereo not drawn)?
ALR inh: 2; HNF4A DNA FP: 1.0; AF4-AF9 inh: 3.8; FGF22 binding: inactive; Ecoli rRNA inh: 10; E coli growth: 0.7; Ecoli rRNA inh OD600: 4; Ecoli rRNA inh RFP: 0.1

Results for COC(C(=O)NNC(=O)Cc1ccc(Cl)cc1)c1ccccc1 (stereo not drawn) ?
ALR inh: 0; Vif A3G: -9%; HNF4A DNA FP: -1.4; AF4-AF9 inh: 7.7; FGF22 binding: inactive; Ecoli rRNA inh: -6; E coli growth: 0.65; Ecoli rRNA inh OD600: 7; Ecoli rRNA inh RFP: 4.5

How did COc1ccc(/C=C/C(=O)OCC(=O)NCCC2=CCCCC2)cc1 do in these assays?
HNF4A DNA FP: 8.5; AF4-AF9 inh: -4.9; FGF22 binding: inactive; Ecoli rRNA inh: -18; E coli growth: 0.71; Ecoli rRNA inh OD600: 3; Ecoli rRNA inh RFP: 11

Results for CCOC(=O)C1(Cc2ccccc2C)CCCN(C(=O)c2ccc(CSC)o2)C1 (stereo not drawn) ?
ALR inh: -12; Vif A3G: 2%; HNF4A DNA FP: 0.7; AF4-AF9 inh: 4.7; FGF22 binding: inactive; Ecoli rRNA inh: -27; E coli growth: 0.67; Ecoli rRNA inh OD600: -30; Ecoli rRNA inh RFP: -5.2

How did COC(=O)C1=C(C)N(C)C(=NCc2cc(OC)c(OC)c(OC)c2)NC1c1ccc(Cl)cc1 (stereo not drawn) do in these assays?
AF4-AF9 inh: -5.1; Ecoli rRNA inh: 4; Ecoli rRNA inh OD600: 4; Ecoli rRNA inh RFP: 6.1

How did CCC(C)(C)C1CCC2(CC1)NC(CO)(CO)CO2 (stereo not drawn) do in these assays?
ALR inh: -3; Vif A3G: 5%; HNF4A DNA FP: -0.8; E coli growth: 0.78

What do the screens show for `C[C@H](O)C#Cc1cnc2c(c1)C(=O)N([C@H](C)CO)C[C@H](C)[C@@H](CN(C)C(=O)CN1CCOCC1)O2`?
AF4-AF9 inh: -2.9; FGF22 binding: inactive; Ecoli rRNA inh: -1; Ecoli rRNA inh OD600: 3; Ecoli rRNA inh RFP: 0.1

3 compounds from above, arranged by heavy-atom count, smallest number first.
Results for Cc1cc(C)nc(SCCS(=O)(=O)Cc2ccccc2)n1 ?
ALR inh: -1; Vif A3G: -4%; HNF4A DNA FP: 0.6; E coli growth: 0.67

How did COc1ccc(/C=C/C(=O)OCC(=O)NCCC2=CCCCC2)cc1 do in these assays?
HNF4A DNA FP: 8.5; AF4-AF9 inh: -4.9; FGF22 binding: inactive; Ecoli rRNA inh: -18; E coli growth: 0.71; Ecoli rRNA inh OD600: 3; Ecoli rRNA inh RFP: 11

How did COCCNC(=O)C1(C)CCCN(Cc2ccc(-c3ccccc3)o2)C1 (stereo not drawn) do in these assays?
HNF4A DNA FP: -2.5; AF4-AF9 inh: 2.3; FGF22 binding: inactive; Ecoli rRNA inh: -1; Ecoli rRNA inh OD600: 4; Ecoli rRNA inh RFP: -0.4

More compounds follow.
How did CCN(CC)C(=O)N1CCN(C(=O)N(CC)CC)CC1 do in these assays?
ALR inh: -9; HNF4A DNA FP: -0.4; AF4-AF9 inh: -1.6; FGF22 binding: inactive; Ecoli rRNA inh: 11; E coli growth: 0.7; Ecoli rRNA inh OD600: 8; Ecoli rRNA inh RFP: -1.0

Results for Clc1ccc(C2Nc3cccc4cccc(c34)N2)c(Cl)c1 ?
HNF4A DNA FP: 2.5; AF4-AF9 inh: 1.5; FGF22 binding: inactive; Ecoli rRNA inh: 5; Ecoli rRNA inh OD600: 18; Ecoli rRNA inh RFP: -1.8

What do the screens show for `C[C@@H]1CN([C@@H](C)CO)C(=O)c2cc(C#Cc3ccccc3)cnc2O[C@H]1CN(C)Cc1ccccn1`?
AF4-AF9 inh: 6.8; FGF22 binding: inactive; Ecoli rRNA inh: 1; Ecoli rRNA inh OD600: -4; Ecoli rRNA inh RFP: 5.0

How did C[C@@H]1CN([C@H](C)CO)C(=O)c2cc(NC(=O)Nc3ccccc3)ccc2O[C@H]1CN(C)Cc1ccc(-c2ccccc2)cc1 do in these assays?
AF4-AF9 inh: -0.2; FGF22 binding: inactive; Ecoli rRNA inh: 1; Ecoli rRNA inh OD600: -9; Ecoli rRNA inh RFP: 3.9

How did CO/N=C/C(=N\Nc1ccccc1)C(=O)c1ccccc1 do in these assays?
ALR inh: -6; Vif A3G: 6%; HNF4A DNA FP: 5.9; AF4-AF9 inh: inconclusive; FGF22 binding: inactive; Ecoli rRNA inh: -14; Ecoli rRNA inh OD600: 1; Ecoli rRNA inh RFP: 4.8

How did CC[C@]12c3[nH]c4cc(-c5ccco5)ccc4c3CCN1C(=O)[C@@H](CC(=O)NCCc1ccccn1)C[C@@H]2C(=O)N1CCN(C(=O)C2CC2)CC1 do in these assays?
Vif A3G: 9%; HNF4A DNA FP: 3.5; AF4-AF9 inh: 4.4; FGF22 binding: inactive; Ecoli rRNA inh: 16; E coli growth: 0.69; Ecoli rRNA inh OD600: 24; Ecoli rRNA inh RFP: 5.1

What do the screens show for `CC1C/C(=C/c2ccco2)C(=O)/C(=C/c2ccco2)C1` (stereo not drawn)?
ALR inh: 54; Vif A3G: 1.9µM*; E coli growth: 0.62

What do the screens show for `CN(C)CCCNC(=O)/C(=N\O)c1ccccc1`?
ALR inh: -16; Vif A3G: inconclusive; HNF4A DNA FP: 0.6

Results for Cc1ccc(S(=O)(=O)Nc2cccc3c2O[C@H](CN(C)C(=O)Nc2cccc4ccccc24)[C@H](C)CN([C@H](C)CO)C3=O)cc1 ?
ALR inh: -13; HNF4A DNA FP: 5.7; AF4-AF9 inh: 0.8; FGF22 binding: inactive; Ecoli rRNA inh: 3&-3; E coli growth: 0.75; Ecoli rRNA inh OD600: -5&-20; Ecoli rRNA inh RFP: 2.4&2.6

What do the screens show for `COc1ccc(NC(=O)CN2CCOCC2)cc1`?
ALR inh: -5; Vif A3G: 0%; HNF4A DNA FP: -0.4; E coli growth: 0.66

What do the screens show for `Cc1cccnc1N(C(=O)Nc1ccccc1)C1=NCC(C)(C)S1`?
ALR inh: -3; Vif A3G: -9%; HNF4A DNA FP: 0.1; E coli growth: 0.74

How did C[C@@]12C(=O)N(CCO)CC(=O)N1[C@H](/C=C/c1ccccc1)[C@@H]1C(=O)N(c3ccccc3)C(=O)[C@@H]12 do in these assays?
ALR inh: -7; AF4-AF9 inh: -0.9; FGF22 binding: inactive; Ecoli rRNA inh: 4; Ecoli rRNA inh OD600: 3; Ecoli rRNA inh RFP: -6.8

What do the screens show for `Cc1cc(=O)oc2cc(OCCSCCN3CCOCC3)ccc12`?
ALR inh: 64; Vif A3G: -2%; HNF4A DNA FP: -2.0; E coli growth: 0.75

What do the screens show for `COc1cc(NS(=O)(=O)c2ccc(OC)c(C)c2C)c(OC)cc1Cl`?
ALR inh: -6; Vif A3G: 10%; HNF4A DNA FP: -0.1; E coli growth: 0.69

What do the screens show for `Cc1cc2c(nc1C)CCCN2Cc1ccccc1C(F)(F)F`?
AF4-AF9 inh: 2.6; FGF22 binding: inactive; Ecoli rRNA inh: 14; Ecoli rRNA inh OD600: 16; Ecoli rRNA inh RFP: 51

How did CCC(=O)c1ccc(OCC(O)CN2C(=O)NC(C)(C)C2=O)cc1 (stereo not drawn) do in these assays?
ALR inh: -7; Vif A3G: 5%; HNF4A DNA FP: 2.5; AF4-AF9 inh: -0.8; FGF22 binding: inactive; Ecoli rRNA inh: 15; E coli growth: 0.71; Ecoli rRNA inh OD600: 14; Ecoli rRNA inh RFP: 3.2

Results for Cc1ccc(NC2CCCN(C(=O)CCC3(C)CC3)C2)cc1C (stereo not drawn) ?
ALR inh: inconclusive; HNF4A DNA FP: 2.2; AF4-AF9 inh: 6.6; FGF22 binding: inactive; Ecoli rRNA inh: -4; E coli growth: 0.71; Ecoli rRNA inh OD600: -11; Ecoli rRNA inh RFP: -2.6

Results for CCOC1(OCC)N=C(N)C2(C#N)C(c3cccc(OC)c3OC)C12C#N (stereo not drawn) ?
ALR inh: -7; Vif A3G: 66%; HNF4A DNA FP: -0.5; E coli growth: 0.71

How did Cc1ccc(CC(=O)Nc2ccc(F)c([N+](=O)[O-])c2)cc1 do in these assays?
ALR inh: -17; Vif A3G: 32%; HNF4A DNA FP: 2.2; AF4-AF9 inh: -6.7; FGF22 binding: inactive; Ecoli rRNA inh: 11; E coli growth: 0.71; Ecoli rRNA inh OD600: 2; Ecoli rRNA inh RFP: -0.8

How did CC(=O)c1c(O)c(C)c(-c2ccccc2)n(-c2ccccc2)c1=O do in these assays?
ALR inh: -1; Vif A3G: -5%; HNF4A DNA FP: 2.8; E coli growth: 0.71
